CDC25B-CDK2 inh – human CDC25B-CDK2/CyclinA binding inhibition; hit rate 0.72% among 94,000; z-score (no concentration beside the values); P30305+P24941; HTRF CDC25B-CDK2/CyclinA binding, anti-His/anti-Flag; hits give high values;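 further: score is relative to mean and SD of negative controls; strong numbers were not always called active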
HIV TAR-Tat – HIV-1 TAR-Tat binding disruption. HIV-1 TAR RNA, Tat peptide displacement FRET; hits give high values. z-score (test concentration not listed). hit rate 0.6% among 100,000;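 further: score is relative to mean and SD of negative controls; some compounds called inactive have numbers as strong as hits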
* hit, by the source's call; x = not tested or not shown.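 How the source made its calls: active means z-score from 3 up in half or more of its runs; inactive means the rest.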

Sample of the layout:
SMILES	CDC25B-CDK2 inh	HIV TAR-Tat
Cc1c(C(=O)Nc2ccc(F)cc2F)sc2nc3n(c(=O)c12)CCCC3	x	-0.56
CCOc1ccc(C2C(C#N)=C(N)Oc3n[nH]c(-c4ccccc4)c32)cc1 (configuration not stated)	-2.33	0.81

The whole of this part, repeating the preview:
SMILES	CDC25B-CDK2 inh	HIV TAR-Tat
Cc1c(C(=O)Nc2ccc(F)cc2F)sc2nc3n(c(=O)c12)CCCC3	x	-0.56
CCOc1ccc(C2C(C#N)=C(N)Oc3n[nH]c(-c4ccccc4)c32)cc1 (configuration not stated)	-2.33	0.81
Cn1nc(-c2ccc(N3CCCCC3)c(NS(C)(=O)=O)c2)c2ccccc2c1=O	-1.35	0.33
C=CCN1C(C(=O)c2ccccc2)=C(NC(=O)c2ccc(F)cc2)c2ccccc2S1(=O)=O	-1.95	-1.09
Cc1cc(C(=O)N2CCN(S(=O)(=O)c3ccc(Br)cc3)CC2)n[nH]1	x	0.61
O=C(c1cccs1)n1c(=O)oc2cc(Cl)ccc21	x	-6.95
CCCc1nnc(N2C(=O)c3oc4ccc(F)cc4c(=O)c3C2c2ccc(OC)cc2)s1 (configuration not stated)	-0.46	1.69
Cc1cc(C2=CSC3=NCCN23)ccc1Cl	2.86	x
COC(=O)C1=C(C)O/C(=C2/C=CC=CN2)C(C)=C1	-1.14	-0.76
CCN1C2=NCCCN2c2cc(C)c(C)cc21	-1.21	x
C=CCOc1ccc(/C(O)=C2\C(=O)C(=O)N(CCN(C)C)C2c2ccc(F)cc2)cc1C (configuration not stated)	-0.52	0.96
COc1cc(C2/C(=C(\O)c3ccccc3)C(=O)C(=O)N2c2cccc(Cl)c2)ccc1O (configuration not stated)	-0.77	1.84
CC1CCC(NC(=O)c2cc3n(n2)CC(C)(C(=O)NC2CCCC2)N(C)C3=O)CC1 (configuration not stated)	x	-0.09
CC1=C/C(=N\N=C2\NC(=O)C(CC(=O)Nc3ccccc3C(F)(F)F)S2)CC(C)(C)C1 (configuration not stated)	-2.39	x
CCSc1nnc(-c2c[nH]c3ccccc23)n1-c1ccc(OC)cc1	-1.6	x
O=S(=O)(NC1CCCC1)c1cc(-c2noc(C3CC3)n2)cs1	x	0.43
CC(C)NC(=O)c1cc2n(n1)C(C(F)(F)F)CC(c1ccco1)N2 (configuration not stated)	-0.79	0.67
Cc1ccccc1-c1noc(-c2nnn(-c3ccc(C(C)C)cc3)c2N)n1	x	-0.39
Cc1cc(C)c(Cn2c(C)c(CNCc3cccs3)c(C(=O)O)c2C)c(C)c1	x	0.48
Cc1oc(S(=O)(=O)N2CCCC2)cc1C(=O)Nc1ccc(F)cc1	-1.63	x
OCC1(CO)COC2(CCCCC2)N1	0.1	x
Cc1cc(-c2ccc(C(C)C)c(S(=O)(=O)N3CCOc4ccc(Cl)cc43)c2)on1	x	-0.27
Cc1cccc(-c2nc(-c3cc4ccc(C)cc4[nH]c3=O)no2)c1	-4.25	0.73
O=S(=O)(c1ccccc1)c1nnn2c1nc(Nc1ccc3c(c1)OCCO3)c1ccccc12	-0.72	-1.29
CN1CCN(C(=O)C2CCCCC2C(=O)O)CC1 (configuration not stated)	1.31	0.34
N#CC1=C(N)OC2=C(C(=O)CCC2)C1c1ccc(Br)cc1 (configuration not stated)	-0.25	x
CC(=O)Oc1ccc(OC(C)=O)c2c1C(=O)c1ccccc1C2=O	17*	x
COC(=O)c1c(NC(=O)c2nc3ncccn3n2)sc2c1CCCCC2	-1.87	0.72
O=c1[nH]c(-c2ccccc2)nnc1/C=C/c1ccccc1	-0.11	x
CC(C)OCCCNS(=O)(=O)c1ccc2c(c1)NC(=O)CC(C)S2 (configuration not stated)	x	1.74
Cc1cc2c(cc1NS(=O)(=O)c1cccs1)n(C)c(=O)c(=O)n2C	x	0.22
CC1(C)NC(=O)N(CC(O)CN(c2ccccc2)S(=O)(=O)c2ccccc2)C1=O (configuration not stated)	-0.9	0.63
Cc1cccn2cc(-c3cccc(NC(=O)CCC(=O)O)c3)nc12	-0.48	x
O=C1c2ccccc2C(=O)C1(c1ccccc1)N1CCc2ccccc2C1	0.2	0.9
Cn1c(SCC(=O)c2ccc(Br)cc2)nnc1-c1ccccc1	-2.32	0.66
CCCCCOC(=O)C1=C(C)Nc2nnnn2C1c1ccc(OC)c(Br)c1 (configuration not stated)	x	-1.02
CCOCCc1nn2c(=O)cc(CSCC(=O)Nc3ccccc3)nc2s1	x	-0.49
CC1(C)Cc2cccc(OCCNC(=O)Cn3nnc4ccccc4c3=O)c2O1	-0.66	0.87
Cc1ccc(CN(Cc2ccco2)C(=O)c2oc3ccc(F)cc3c2C)cc1	0.39	1.53
Cc1ccc(CNS(=O)(=O)c2ccc(-c3ccc(=O)[nH]n3)s2)o1	x	0.61
Cc1cc(C)cc(OCC(=O)N2N=C(CC(C)C)CC2(O)C(F)(F)F)c1 (configuration not stated)	-1.51	x
O=S(=O)(c1ccccc1)c1nnn2c1nc(NCc1ccco1)c1sccc12	x	0.79
Cc1noc(C)c1C(=O)NCc1c(F)cccc1Cl	-0.98	x
O=C(CSCCc1ccccn1)Nc1nccs1	x	1.28
O=C(O)c1nccnc1C(=O)Nc1ccc2c(c1)OCCCO2	-1.79	x
O=C(Nc1nnc(Cc2nc3ccccc3[nH]2)s1)c1ccco1	-1.12	-1.2
COc1ccc(C(=O)N2CCSC2=S)cc1	0.75	0.85
O=C(c1cccs1)N1CCN(Cc2cc(=O)c3cccc(Cl)c3[nH]2)CC1	x	-1.02
CC(=O)N1c2c(cc(Br)cc2S(=O)(=O)N2CCN(c3ccccn3)CC2)CC1C (configuration not stated)	-0.53	x
[Li+]	-0.98	1.31
C#C/C(=C(C(=O)OC)/C(C(=O)OC)=C(/CC(=O)OC)C(=O)OC)c1ccccn1	0.32	x
CC(Oc1ccccc1)C(=O)Nc1ccc(OCc2cc(=O)n3cc(Cl)ccc3n2)cc1 (configuration not stated)	x	0.67
COC(=O)Cn1cnc2c(-c3ccc(Br)cc3)noc2c1=O	0.03	-0.42
Cc1cc2c(cc3n2CC(C)(C(=O)NC2CCCCC2)N(CCN2CCCC2)C3=O)o1 (configuration not stated)	x	1.6
Cn1c(NCc2ccco2)nc2c1c(=O)n(CCc1ccccc1)c(=O)n2C	-0.3	0.82
CCC(CCC(=O)Nc1nncs1)C(=O)O (configuration not stated)	-0.86	0.62
CNC(=O)c1c(NC(=O)CCOc2ccccc2)sc2c1CCC2	x	0.16
CSc1ccc(C(F)(F)F)cc1NC(=S)Nc1ccccc1	0.39	x
CC(C)NC(=O)c1cnc2sc(N3CCOCC3)nn2c1=O	x	0.56
CN(C)/C=C/C(=O)/C=C/c1ccc(Cl)cc1Cl	-2.58	x

The list continues:
SMILES	CDC25B-CDK2 inh	HIV TAR-Tat
COc1ccc(OC)c(CNc2ncnc3scc(-c4ccc(F)cc4)c23)c1	x	-0.3
CCc1cc2c3c([nH]c2cc1S(=O)(=O)NCc1nc2ccc(C)cc2[nH]1)CCCC3=O	x	1.55
CC(C)CNC(=O)c1noc2c1CCCC2	-2.75	0.37
CCOC(=O)[C@@H]1CSC2C3SC[C@@H](C(=O)OCC)N3CCN21 (some centres not stated)	-2.76	x
c1ccc2c(c1)CCOC2CNCC1COc2ccccc2O1 (configuration not stated)	-1.79	0.52
CC(=O)O[C@@H]1CC2C(C)(C)C(=O)C=C[C@]2(C)C2CC[C@@]3(C)[C@H](c4ccoc4)OC(=O)[C@H]4O[C@]43[C@@]21C (some centres not stated)	x	0.31
CCC1CCCCN1CCCNc1ncnc2onc(C)c12 (configuration not stated)	x	0.56
N#CC1(CN2C(=O)C3(OCCO3)c3ccccc32)CC=CCC1 (configuration not stated)	-1.41	x
O=C(O)CCCCCN1C(=O)C2C3c4ccccc4C(c4ccccc43)C2C1=O (configuration not stated)	-1.8	0.85
CC(C)CNC(=O)CSc1nc(-c2cccs2)cc(C(F)(F)F)n1	-2.83	0.16
CSc1ccc(/C=N/n2c(=O)oc3ccccc3c2=O)cc1	-0.32	x
CC1=C(C(=O)Nc2cc(C)ccn2)C(c2cccc(Br)c2)C2=C(CC(C)(C)CC2=O)N1 (configuration not stated)	0.12	-0.45
Cc1cc(C)cc(-n2ccn3c(CCC(=O)NCC4CCCO4)nnc3c2=O)c1 (configuration not stated)	x	-2.68
COc1ccc(Nc2nc(Nc3ccc(OC)cc3OC)nc(N3CCOCC3)n2)c(OC)c1	-2.89	x
O=c1c(-c2ccccc2)c(N2CCCc3ccccc32)c1=O	x	0.56
COC(=O)c1ccccc1NC(=S)Nc1ccc(Cl)cn1	-2.1	x
Cc1onc(-c2ccccc2)c1C(=O)N(C)CCc1ccccn1	-1.95	x
CN1C=CC(=CC=C2C=CC(=O)C=C2)C=C1	-1.87	-6.16
CCOC(=O)c1sc(=S)n(-c2cccc(OC)c2)c1N	x	2.86
CC(C)C(NC(=O)c1cccs1)C(=O)O (configuration not stated)	-1.58	x
COc1ccc(-n2c(C)cc(C(=O)CN3CCOCC3)c2C)cc1	-0.39	x
Cc1n[nH]c(=O)nc1NCC1CCCO1 (configuration not stated)	-0.76	0.86
NC(Cc1cccc(-c2ccccc2CP(=O)(O)O)c1)C(=O)O (configuration not stated)	-1.1	x
O=C(Nc1ccc2c(c1)OCCO2)Nc1nc2c(s1)CCCCCC2	x	-0.33

A section taken from the entries so far:
SMILES	CDC25B-CDK2 inh	HIV TAR-Tat
CCC1CCCCN1CCCNc1ncnc2onc(C)c12 (configuration not stated)	x	0.56
N#CC1(CN2C(=O)C3(OCCO3)c3ccccc32)CC=CCC1 (configuration not stated)	-1.41	x
O=C(O)CCCCCN1C(=O)C2C3c4ccccc4C(c4ccccc43)C2C1=O (configuration not stated)	-1.8	0.85
CC(C)CNC(=O)CSc1nc(-c2cccs2)cc(C(F)(F)F)n1	-2.83	0.16
CSc1ccc(/C=N/n2c(=O)oc3ccccc3c2=O)cc1	-0.32	x
CC1=C(C(=O)Nc2cc(C)ccn2)C(c2cccc(Br)c2)C2=C(CC(C)(C)CC2=O)N1 (configuration not stated)	0.12	-0.45
Cc1cc(C)cc(-n2ccn3c(CCC(=O)NCC4CCCO4)nnc3c2=O)c1 (configuration not stated)	x	-2.68
COc1ccc(Nc2nc(Nc3ccc(OC)cc3OC)nc(N3CCOCC3)n2)c(OC)c1	-2.89	x
O=c1c(-c2ccccc2)c(N2CCCc3ccccc32)c1=O	x	0.56
COC(=O)c1ccccc1NC(=S)Nc1ccc(Cl)cn1	-2.1	x
Cc1onc(-c2ccccc2)c1C(=O)N(C)CCc1ccccn1	-1.95	x
CN1C=CC(=CC=C2C=CC(=O)C=C2)C=C1	-1.87	-6.16
CCOC(=O)c1sc(=S)n(-c2cccc(OC)c2)c1N	x	2.86
CC(C)C(NC(=O)c1cccs1)C(=O)O (configuration not stated)	-1.58	x
COc1ccc(-n2c(C)cc(C(=O)CN3CCOCC3)c2C)cc1	-0.39	x
Cc1n[nH]c(=O)nc1NCC1CCCO1 (configuration not stated)	-0.76	0.86
NC(Cc1cccc(-c2ccccc2CP(=O)(O)O)c1)C(=O)O (configuration not stated)	-1.1	x
O=C(Nc1ccc2c(c1)OCCO2)Nc1nc2c(s1)CCCCCC2	x	-0.33

(continued)
SMILES	CDC25B-CDK2 inh	HIV TAR-Tat
COc1ccc(S(=O)(=O)N2CCc3cc4cccc(C)c4nc32)cc1	-1.76	-2.02
COc1ccc(OC)c(C(=O)CSc2nccn(-c3ccccc3)c2=O)c1	x	0.49
COc1ccc(N2CCC(CNC(=O)Nc3cccc(OC)c3)C2)cc1 (configuration not stated)	x	0.32
COc1ccc(S(=O)(=O)N(C(=O)c2ccncc2)c2cc3sc(=O)oc3c3ccccc23)cc1	-0.17	1.06
COc1cccc(-c2nnc(SCCOc3ccc(C)cc3)o2)c1	-0.3	-0.56
CCc1c(C)n([O-])c2c([n+]1=O)CCCCC2	-0.89	x
CC(C)(C)C(O)/C=C/c1ccc2c(c1)OCO2 (configuration not stated)	x	1.73
O=C1c2cccnc2C(=O)N1Cc1ccc(S(=O)(=O)NC2CCCCC2)cc1	x	-0.08
COc1ccc2[nH]c3c(=O)n(CC(=O)NCc4ccco4)c(=S)[nH]c3c2c1	-2.29	x
O=c1c2sc3ccccc3c2[nH]c(=S)n1CCN1CCOCC1	-1.85	x
O=C(NCCN=C1NS(=O)(=O)c2ccccc21)c1ccncc1	1.12	x
Cc1c(C(=O)N2CCCCC2)sc2nc3n(c(=O)c12)CCCCC3	x	2.68
O=C(CSc1nnc(Cn2c(=O)sc3ccccc32)n1-c1ccccc1)NCC1CCCO1 (configuration not stated)	-1.07	x
CCCCCOC(=O)C1=C(C)NC2=C(C(=O)CCC2)C1c1ccc(C)cc1 (configuration not stated)	-2.39	0.6
Cc1ccc(-c2cnc3c(-c4ccc(Cl)cc4)c(C)nn3c2N)cc1	-2.17	-0.54
CC(C)(C)n1nc2c(c1NC(=O)c1cccs1)CS(=O)C2 (configuration not stated)	-0.83	x
Cc1c(C(=O)N2CCCC2)oc2c1-c1nn(CC(=O)N3CCN(C)CC3)cc1CC2	x	-0.17
Cc1nnc2c(Nc3ccccc3O)nc3ccc(C(=O)c4ccccc4)cc3n12	x	-6.21
Cc1ccc(N=Cc2c(C)[nH]n(-c3ccccc3)c2=S)c(C)c1	-2.66	0.07
CC1(C)OC(=O)C(=C2C3C4CC5C2C2C3CC4C52)C(=O)O1 (configuration not stated)	-0.26	x
COc1ccc(C(=O)c2cn(Cc3ccc(C)cc3)c3cc4c(cc3c2=O)OCO4)cc1	-1.02	0.13
CCOC(=O)C1=NNC(C(=O)c2ccc(OC)cc2)C1c1ccccc1 (configuration not stated)	-0.67	1.15
O=C(NCCCN1CCCCC1)NC1COc2ccccc2C1 (configuration not stated)	x	1.08
CCOC(=O)c1c(C)oc2nc(C)nc(Nc3ccc(F)c(Cl)c3)c12	x	2.18
Oc1ccccc1Nc1nc(NCc2ccccc2)c2ccccc2n1	4.13	0.23
O=c1cc(-c2ccc(O)cc2)oc2ccc(O)cc12	-1.91	x
Cc1oc(-c2ccno2)cc1S(=O)(=O)N1CCN(C(=O)c2ccco2)CC1	x	0.2
O=C(NCCCN1CCCC1=O)c1cccn1-c1nnc(N2CCCC2)s1	x	0.42
CC1CCN(S(=O)(=O)c2cc(S(=O)(=O)N3CCC(C)CC3)c3cccc4c3c2NC4=O)CC1	0.81	-0.04

Hits appear at their usual frequency; any-hit rate near 0.87%.
